NPR1 antag = blocks ANP-stimulated signaling of human Npr1 receptor; 76,000 compounds, 1.6% hits; AID 1347048; Potency, µM (titrated, usually from 46.3 µM), without a hit: top-dose activity change, negative = inhibition, hits mostly inhibitors; HEK293 hNpr1 GloSensor cGMP, ANP-stimulated luminescence; active = well fitted inhibition curve with a large enough effect; inconclusive = small, poorly fitted or top-dose-only effect; inactive = no such curve, though single readings can be large or run the other way;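 note: nearly all actives have a fitted effect of over 60% in size; nearly all hits also lower the signal before the agonist is added; a reference antagonist and vehicle were the controls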
Target sequence (P16066 whole entry, looked up): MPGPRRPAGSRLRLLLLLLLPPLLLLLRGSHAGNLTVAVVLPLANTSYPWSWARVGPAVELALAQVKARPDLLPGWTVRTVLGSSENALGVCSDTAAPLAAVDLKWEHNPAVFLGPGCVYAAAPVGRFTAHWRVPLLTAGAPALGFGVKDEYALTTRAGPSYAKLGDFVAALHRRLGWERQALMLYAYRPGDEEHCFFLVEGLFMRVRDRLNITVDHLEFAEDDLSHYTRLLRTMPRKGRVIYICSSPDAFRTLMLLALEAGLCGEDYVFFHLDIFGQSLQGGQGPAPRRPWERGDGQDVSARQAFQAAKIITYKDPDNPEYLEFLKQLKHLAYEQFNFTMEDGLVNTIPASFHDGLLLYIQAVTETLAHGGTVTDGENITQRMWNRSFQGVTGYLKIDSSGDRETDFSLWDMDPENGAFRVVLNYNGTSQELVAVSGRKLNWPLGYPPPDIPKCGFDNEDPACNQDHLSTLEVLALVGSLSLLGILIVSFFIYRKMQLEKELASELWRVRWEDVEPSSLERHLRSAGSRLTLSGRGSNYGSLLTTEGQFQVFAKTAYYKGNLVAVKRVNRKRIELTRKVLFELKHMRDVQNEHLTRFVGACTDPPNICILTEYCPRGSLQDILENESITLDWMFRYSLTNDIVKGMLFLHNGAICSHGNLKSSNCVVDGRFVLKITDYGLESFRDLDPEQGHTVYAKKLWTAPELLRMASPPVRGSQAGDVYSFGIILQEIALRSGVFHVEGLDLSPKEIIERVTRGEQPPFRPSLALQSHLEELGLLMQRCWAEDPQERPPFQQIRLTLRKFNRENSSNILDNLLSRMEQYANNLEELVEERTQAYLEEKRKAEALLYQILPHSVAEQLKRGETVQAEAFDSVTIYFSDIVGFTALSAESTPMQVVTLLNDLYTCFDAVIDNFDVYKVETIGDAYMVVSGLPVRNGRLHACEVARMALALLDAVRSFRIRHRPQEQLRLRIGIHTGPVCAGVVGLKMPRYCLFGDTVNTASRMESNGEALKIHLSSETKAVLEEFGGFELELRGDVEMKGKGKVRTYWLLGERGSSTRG
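Compound pre-incubated 30 min at room temperature on GloSensor-loaded HEK293 cells stably carrying hNpr1 and the pGS-40F cGMP biosensor. Stimulation uses hNppA at 0.1 nM final; luminescence is taken at baseline and 20 min post-agonist.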
An asterisk follows results filed as active; u = inconclusive; [ ] = another dose, or the depositor's remark. % is set by controls: 0 for no effect and ±100 for the full control effect; potency is the fitted concentration of half-maximal effect. The list is partial; rates above refer to the full screens.

A first look, five compounds:
#	SMILES	NPR1 antag
1	CC(C)c1cc(C(=O)N2CCN(C)[C@@H]3CS(=O)(=O)C[C@@H]32)nc2ncnn12	2%
2	CN(Cc1ccccc1)Cc1cc(C[C@@H]2CC[C@H](O)[C@@H](CNC(=O)c3cccc(F)c3)O2)no1	4%
3	CCOc1ccc2c(n1)CCN(C(=O)C1CCC1)C2	3%
4	Cc1cccc(OCCc2noc(C3CCCCN3S(C)(=O)=O)n2)c1 (stereo unspecified)	1%
5	CCOc1ccc(C(=O)N2CCN(c3cc(-c4ccccc4)[nH]n3)CC2)cc1OCC	-17%

The list itself, previewed entries included:
#	SMILES	NPR1 antag
1	CC(C)c1cc(C(=O)N2CCN(C)[C@@H]3CS(=O)(=O)C[C@@H]32)nc2ncnn12	2%
2	CN(Cc1ccccc1)Cc1cc(C[C@@H]2CC[C@H](O)[C@@H](CNC(=O)c3cccc(F)c3)O2)no1	4%
3	CCOc1ccc2c(n1)CCN(C(=O)C1CCC1)C2	3%
4	Cc1cccc(OCCc2noc(C3CCCCN3S(C)(=O)=O)n2)c1 (stereo unspecified)	1%
5	CCOc1ccc(C(=O)N2CCN(c3cc(-c4ccccc4)[nH]n3)CC2)cc1OCC	-17%
6	O=C(NCc1cc(F)cc(F)c1)[C@H]1CN(Cc2ccccc2)C[C@H]1C(=O)O	2%
7	CN(C)c1ncc2c(n1)CCCC2NC(=O)CN1C(=O)NC(C)(C)C1=O (stereo unspecified)	-2%
8	CC1(C(=O)Nc2ccc(F)c(F)c2)CCCCC(=O)N1 (stereo unspecified)	3%
9	COc1ccc(Cc2nc3nccc(-c4cc5ccccc5o4)n3n2)cc1	3%
10	O=C1C(N2CCN(S(=O)(=O)Cc3ccccc3F)CC2)CCN1Cc1ccccn1 (stereo unspecified)	-7%
11	O=C1Nc2ccc(-c3ccccc3F)cc2C(=O)N2CCN(C(=O)C3CCCCC3)C[C@H]12	6%
12	CNC(=O)c1cc2cc(-c3c(C)noc3C)nc(-c3cccc(OC)c3OC)c2o1	5%[70.6 µM]
13	CC(C(=O)NC1CC1)[C@@H]1CC[C@@]2(C)CC[C@H](NC(=O)Nc3cccc(F)c3)[C@@H](C)[C@@H]2[C@H]1O (stereo partly specified)	3%
14	O=S(=O)(c1ccccc1C(F)(F)F)N1CCCC1c1nncn1Cc1ccncc1 (stereo unspecified)	5%
15	Cc1ccc(C(CC(=O)NC(C)C)c2cn(C)c3ccccc23)cc1 (stereo unspecified)	0%
16	COCC(=O)N[C@@H]1CN(Cc2cccc(C#N)c2)C[C@H]1CO	0%
17	CC(=O)NCCNC(=O)c1ccc(-c2ncc3cnc(-c4cccc(F)c4)cn23)cc1	-1%[70.6 µM]
18	CC(=O)N1CCC(C2CCN(Cc3ccc(F)cc3F)C2)CC1 (stereo unspecified)	4%
19	CC1=C[C@@H](CNC(=O)CCCC(=O)O)[C@H](C(C)C)C[C@H]1Cc1nc2ccccc2n1C	1%[70.6 µM]
20	O=C(NCCC1COc2ccccc2O1)c1ccc(N2CCCOCC2)nc1 (stereo unspecified)	0%
21	Cc1cc(C)n(Cc2ccc(C(=O)N3CC4CC(C3)[C@H]3CCCC(=O)N3C4)o2)n1 (stereo partly specified)	4%
22	O=C(NCCc1ccccn1)c1ccc2nccn2c1	0%[70.6 µM]
23	COc1ccc(-c2noc(-c3cccn3CC(=O)N3CCN(c4ccc(F)cc4)CC3)n2)cc1F	4%
24	COc1ccc(-c2cc3c(=O)n(CCNC(=O)c4cccc(N(C)C)c4)ccn3n2)cc1	-28%
25	Cc1noc([C@@H]2CN(Cc3ccco3)C[C@H]2CO)n1	-1%
26	Cc1noc(C)c1C(=O)N1CCc2nn(C)c(=O)n2CC1	-7%
27	COc1ccccc1OC1(C(=O)O)CCN(c2ncnc3nc[nH]c23)CC1	8%
28	CCOCCn1c(=O)[nH]c2cc(C(=O)NCCN3CCOC3=O)ccc21	6%
29	C[C@]1(CO)[C@H]2Cc3sc(NC(=O)C4CCC4)nc3[C@@H](CC(=O)N3CCCCC3)[C@]2(C)CC[C@H]1O	3%
30	O=C(NCCc1ccccn1)c1cnc2c(c1)N([S+](=O)([O-])c1cccnc1)CCC2	6%[70.6 µM]

Records 29 through 30 of the list above:
#	SMILES	NPR1 antag
29	C[C@]1(CO)[C@H]2Cc3sc(NC(=O)C4CCC4)nc3[C@@H](CC(=O)N3CCCCC3)[C@]2(C)CC[C@H]1O	3%
30	O=C(NCCc1ccccn1)c1cnc2c(c1)N([S+](=O)([O-])c1cccnc1)CCC2	6%[70.6 µM]

Following part
#	SMILES	NPR1 antag
31	O=C(NCc1ccccc1)C1CCC(=O)N1C1CCN(C(=O)c2ccc(Cl)cc2)CC1 (stereo unspecified)	-10%
32	Cc1noc2c(N3CCN(C)CC3c3ccccc3)cc(-c3cccnc3)nc12 (stereo unspecified)	1%[70.6 µM]
33	COc1ccc(C(=O)NC2CCN(C(=O)c3cc4c(=O)[nH]c(C)cn4n3)CC2)cc1F	-13%
34	O=C(C[C@@H]1O[C@H](CNC(=O)C2CCCC2)[C@@H](O)[C@H]1O)NC1CC1	2%[70.6 µM]
35	Cc1ccc2c(C(=O)NCc3cccc(Cl)c3)cc(NC(=O)C(C)C)cc2n1	-14%
36	CCNC(=O)N1CC(C(=O)NCc2ccccc2)CC(c2ccc(F)c(C)c2)C1 (stereo unspecified)	u
37	O=C(O)Cc1cccn1-c1ccc(Cl)cc1	3%
38	COC1CCCOC12CCN(C(=O)CCCn1cncn1)CC2 (stereo unspecified)	1%
39	COc1ccc(-c2nc(C3CC(=O)N(c4ccc(OC)c(OC)c4)C3)no2)c(OC)c1 (stereo unspecified)	-24%
40	CN1CCCC2(C1)CN(C)c1ccc(C(=O)NCC3CCCCC3)cc12 (stereo unspecified)	4%[70.6 µM]
41	CC(C)OCCCNC(=O)c1ccc(Cn2ccn3nc4c(c3c2=O)CCCC4)cc1	-6%
42	CCCc1nc(-c2nc(C3CCOC3)no2)cs1 (stereo unspecified)	-8%
43	CN(C)CCNC(=O)C[C@@H]1O[C@H](CNC(=O)c2ccco2)[C@@H](O)[C@H]1O	7%[70.6 µM]
44	O=C(NCCCc1ccccc1)c1n[nH]c2c1CN(C(=O)C1CC1)CC2	-2%
45	COC[C@@H]1CN(C(=O)c2cccc3[nH]ccc23)C[C@H]1c1nc(C)no1	7%
46	O=C(Nc1ccc(=O)n2c1[C@@H]1C[C@@H](CN(C(=O)c3ccc(F)cc3)C1)C2)c1ccc2c(c1)OCO2	-8%
47	Cc1nn2c(c1-c1ccccc1OCc1ccccc1)N(C(=O)c1ccn(C)n1)CCC2	0%[70.6 µM]
48	Nc1nc(C2CC(NC(=O)Cc3noc4ccccc34)C2)cc(=O)[nH]1 (stereo unspecified)	-2%
49	Cn1c(CO[C@H]2CN(Cc3ccc4c(c3)OCCO4)C[C@H]2F)nc2ccccc21	-10%[70.6 µM]
50	COc1ccc(NC(=O)O[C@@H]2CO[C@H]3[C@@H]2OC[C@@H]3NS(=O)(=O)c2cccc3cccnc23)cc1	3%
51	COc1cccc(CNC(=O)CCC2CCN(C(=O)c3ccccc3F)CC2)c1	-14%
52	c1ccc(C(c2ccccc2)N2CCN(Cc3nc(-c4ccccn4)no3)CC2)cc1	3%
53	CN(C)c1nccnc1OC1CCN(C(=O)c2ccoc2)C1 (stereo unspecified)	3%
54	CC1CCN(C(=O)c2ccccc2OCC2CCCN(Cc3nccs3)C2)CC1 (stereo unspecified)	-18%
55	Cc1nc2n(c1C(=O)NCCOc1ccccc1)CCC(Nc1ccc(F)cc1)C2 (stereo unspecified)	5%[70.6 µM]
56	O=C(c1cccc2[nH]ccc12)N1CC[C@@H]2COCCN(Cc3cccnc3)[C@@H]2C1	4%
57	CN(CC#N)C(=O)[C@H]1CN(Cc2ccccc2)C[C@H]1C(=O)O	3%
58	CCN(CC)C1CCOC2(CCN(C(=O)c3n[nH]c4ccccc34)CC2)C1 (stereo unspecified)	20%
59	C=CCn1cc2c3c(cccc31)[C@H](CC(C)C)N[C@H](C(=O)NCCN(C)C)C2	2%[70.6 µM]
60	COc1ccc(CN2CCCCCNC(=O)[C@@H]3CCC[C@@H]32)cc1Cn1ccnc1	-3%
61	C/C=C/CC(=O)N1CCC(Oc2ccccc2OC)(C(=O)O)CC1	10%
62	Cn1c(C(=O)NCCc2ccccn2)nc2nc(-c3ccccc3)c(Cl)cc21	-22%[70.6 µM]
63	COc1ccc(C(=O)NCC(=O)N2CCCCCCNC(=O)CC2c2ccccc2)cn1 (stereo unspecified)	-10%
64	CC1(c2cccnc2)N(CCOc2ccccc2)C(=O)OC12CCN(C(=O)CN1CCOCC1)CC2 (stereo unspecified)	5%
65	COc1ccc2[nH]cc(CCNC(=O)C3CC(=O)N(c4n[nH]c5cccc(F)c45)C3)c2c1 (stereo unspecified)	0%
66	O=C(CC(c1ccccc1)c1ccccc1Cl)NCc1cc2n(n1)CCNC2 (stereo unspecified)	-2%
67	COc1ccc(CN2CCCC(c3nn(-c4ccc(OC)cc4)c(=O)[nH]3)C2)cc1 (stereo unspecified)	21%
68	CCC[S+](=O)([O-])N1CCN(C(=O)N2CC3CC(C2)[C@H]2CCCC(=O)N2C3)CC1 (stereo partly specified)	11%
69	CN(C)Cc1nnc(C2CC(NC(=O)c3cnc4c(c3)CCC4)C2)n1C (stereo unspecified)	-4%
70	O=C(NCCc1cccc(F)c1)C1CC(=O)N(c2n[nH]c3cccc(F)c23)C1 (stereo unspecified)	0%
71	Cc1ccccc1-c1[nH]nc2ncc(-c3ccccc3C#N)nc12	-12%[70.6 µM]
72	CC(NC(=O)c1ccc(-c2ccc(N3CCCCCC3)nc2)cc1)c1cccnc1 (stereo unspecified)	u
73	CCOCCOC1CCN(C(=O)c2c[nH]c3ccccc23)CC1	0%
74	NC[C@H]1O[C@H](Cc2cc(-c3ccc(F)cc3)on2)CC[C@@H]1O	14µM*
75	CN(C)C(=O)c1ccc2c(c1)NC(C)(COc1ccc3[nH]ccc3c1)CO2 (stereo unspecified)	-14%[70.6 µM]
76	COCCCNc1ncnc2c1CN(c1ccccc1)C(=O)CN2C	-1%
77	COCCN1CCCCCC(O)c2cc(C(=O)N3CCN(c4ccccc4OC)CC3)ccc21 (stereo unspecified)	1%
78	CCC(CC)NC(=O)CCC1CCN(C(=O)c2ccccc2)CC1	2%
79	CCN1C(=O)C(CC(=O)NCc2ccco2)Sc2ncccc21 (stereo unspecified)	1%
80	COCCC(=O)N1CCC2(CCC2OC)CC1 (stereo unspecified)	-2%
81	O=S1(=O)CCC(S(=O)(=O)N2CCCC2)C1 (stereo unspecified)	-20%
82	O=C(NCC1CCCO1)c1noc(-c2ccc[nH]c2=O)n1 (stereo unspecified)	0%
83	COc1ccc(C(=O)N2CCn3c(nnc3[C@@H]3C[C@@H](O)CN3Cc3ccccc3)C2)cn1	7%
84	Cn1cc(-c2cc(-c3cccnc3)c3cncn3c2)cn1	-2%[70.6 µM]
85	CNC(=O)c1noc(CN2CCCC(C)(c3ccccc3)C2)n1 (stereo unspecified)	0%
86	CCS(=O)(=O)N1CCC(N2C(=O)C3(CCCC3)C2c2ccccc2)CC1 (stereo unspecified)	5%
87	C[C@]1(CO)[C@H]2Cc3sc(-c4ccccc4)nc3[C@@H](CC(=O)N3CCOCC3)[C@]2(C)CC[C@H]1O	-1%
88	Fc1cccc(Cc2noc(-c3nc(-c4ccc5c(c4)OCO5)no3)n2)c1	4%
89	Cc1ccc(NC(=O)Cn2ccn3nc4c(c3c2=O)CCCCC4)cc1	16%
90	COc1ccc(NC(=O)Cn2nc3n(c2=O)CCCC3)cc1Cl	2%

Ordered by molecular weight (descending): part of the list above.
#	SMILES	NPR1 antag
72	CC(NC(=O)c1ccc(-c2ccc(N3CCCCCC3)nc2)cc1)c1cccnc1 (stereo unspecified)	u
60	COc1ccc(CN2CCCCCNC(=O)[C@@H]3CCC[C@@H]32)cc1Cn1ccnc1	-3%
15	Cc1ccc(C(CC(=O)NC(C)C)c2cn(C)c3ccccc23)cc1 (stereo unspecified)	0%

Further records.
#	SMILES	NPR1 antag
91	CC(=O)N[C@@H]1CN(C(=O)c2cnc3ccccc3c2)C[C@H]1c1ccc(C)cc1	-5%
92	O=C(NCCc1cccnc1)C1CCc2sc(C(=O)N3CCCCC3)cc2C1 (stereo unspecified)	-3%
93	CC(C)(C)c1csc(NC(=O)C[C@H]2NC(=O)c3ccccc3NC2=O)n1	-9%
94	CNC(=O)CCn1ncc2cc(OCc3ccccc3-c3cccc(NC(C)=O)c3)ccc21	-19%
95	COc1cc(-c2onc(C)c2C(=O)NCCC(c2ccccc2)c2ccccc2)cc(OC)c1OC	-21%
96	Cn1cccc1C(=O)N1CCOCC1CC(=O)N1CCSCC1 (stereo unspecified)	1%
97	Cc1noc(-c2cn(C3CCCN(C(=O)c4ccc5[nH]ccc5c4)C3)nn2)n1 (stereo unspecified)	2%
98	CC(=O)NC1CCN(C(=O)c2coc(COc3ccc4c(c3)OCO4)n2)C1 (stereo unspecified)	3%
99	O=c1[nH]c(N2CCOCC2)nc2c1CCN(Cc1ccccc1F)CC2	4%
100	COC(=O)c1ccc(NC(=O)N2CCC3(CC2)N(CC2CC2)C(=O)CS3=O)cc1 (stereo unspecified)	2%
101	CC(=O)N1C[C@@H](NC(=O)Nc2ccc(F)cc2F)C[C@H]1C(=O)N[C@H](Cc1c[nH]c2ccccc12)C(N)=O	-1%
102	COc1ccc(C(=O)N2CCCC2c2noc(COc3ccc(F)cc3)n2)cn1 (stereo unspecified)	-9%

Screening results as filed in PubChem.
